Bfl-1 A1 inh – caspase 3/7 activation in MEF A1-2A-BIM cells, primary screen, A1 inhibitor project, cell-based, luminescence, HTS. actives 0.066% (n = 330,000). caspase activation, % (concentration not given with the values). Caspase-Glo 3/7 luminescence, 3 h; percent of clofoctol response, vehicle zero. AID 2462, 2010;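 active = over half of replicate activation scores above 10%, or exactly half above 10 with the replicate mean above 10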;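 also: wells of about 30 µL received 50 nL stock; many hits fall short of the cut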
Calb FLC – C. albicans growth inhibition with fluconazole, primary screen, CaCi-2 strain, Alamar Blue fluorescence. C. albicans CaCi-2 (fluconazole-resistant clinical isolate) + fluconazole, 48 h. growth inhibition, % (test concentration not listed). actives 0.57% (n = 300,000). AID 1979, 2009;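 active = most replicates above 75%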;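 also: all wells also contain fluconazole at 8 µg/ml as a sub-toxic cotreatment; 0% = median of DMSO wells and 100% = median of geldanamycin control wells; wells of about 8 µL received 7.5 nL stock; the first replicate is given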
rRNA inh HTS – reduced GFP signal of wild-type E. coli, primary screen, bacterial rRNA inhibitor project, GFP/RFP fluorescence, OD600, single point | E. coli WT GFP vs humanized-ribosome RFP mutants, 24 h; active compounds read low; DMSO median 0, no signal -100 | GFP signal change (wild-type ribosome), % (test concentration not listed) | actives 1.6% (n = 350,000) | AID 720706, 2013;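 active = significant combined selectivity score with lowered wild-type GFP, culture density cut under 30%, mutant RFP and density less affected; inactive = any of these conditions unmet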; also: one replicate is shown; some compounds called inactive have numbers as strong as hits
B2AR ag – beta2AR agonists driving receptor internalization, primary screen, cell-based, FAP fluorogen, flow cytometry. Am2.2-beta2AR cells; reference of the scale not given here. Beta-2 adrenergic receptor (Homo sapiens), P07550. actives 0.43% (n = 340,000). response, % (concentration not given with the values);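 active = response above a set limit, near 3 SD of response in nonfluorescent compounds, cut at about 42% in these data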;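 also: stock transfer was 100 nL into about 11 µL; a reference agonist was the positive control; negative values mostly stem from fluorescent compounds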
Target sequence (P07550 whole entry, looked up): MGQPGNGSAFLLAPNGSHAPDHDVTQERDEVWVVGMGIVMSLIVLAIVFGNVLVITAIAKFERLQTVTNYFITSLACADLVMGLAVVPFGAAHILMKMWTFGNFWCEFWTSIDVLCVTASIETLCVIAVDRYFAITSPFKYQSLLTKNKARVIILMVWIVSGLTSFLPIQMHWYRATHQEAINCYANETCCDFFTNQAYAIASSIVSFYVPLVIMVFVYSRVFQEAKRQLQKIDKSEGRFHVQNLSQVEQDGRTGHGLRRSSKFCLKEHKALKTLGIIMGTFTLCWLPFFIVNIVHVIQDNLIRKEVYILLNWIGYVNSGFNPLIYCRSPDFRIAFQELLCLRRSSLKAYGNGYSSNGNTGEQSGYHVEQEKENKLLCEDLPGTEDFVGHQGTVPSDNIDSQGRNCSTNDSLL
T cruzi inh – inhibitors of intracellular T. cruzi growth, primary screen, luminescence, NIH3T3 host cells. T. cruzi beta-gal in NIH3T3, 90 h. actives 1.4% (n = 300,000). inhibition, % (concentration not given with the values);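 active = mean inhibition across valid replicates above about 55%, limit read from the data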;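 also: signal also drops with host cell toxicity which is not excluded here; 0% = plate median of DMSO wells and 100% = zero luminescence signal; higher percent means less beta-gal luminescence so fewer parasites; stock transfer was 50 nL into about 50 µL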
Beta cell apopt – inhibitors of cytokine-induced beta cell apoptosis, primary screen, luminescence; INS-1E cytokine-induced death, ATP luminescence, 48 h; percent of positive-control rescue, neutral wells zero; protection from apoptosis, % (test concentration not listed); actives 0.8% (n = 300,000); AID 435005, 2010;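 active = all replicates at 75% or more, or half of them and the mean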;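 also: 0% = cytokine-treated negative control wells and 100% = positive control rescue; higher means more ATP so stronger rescue from cytokine killing; wells of about 40 µL received 100 nL stock; the first replicate is given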
ALR inh – inhibitors of human ALR sulfhydryl oxidase, primary screen, biochemical, H2O2 detection, HRP-luminol luminescence, single point. FAD-linked sulfhydryl oxidase ALR (Homo sapiens), P55789. purified ALR, DTT oxidation. inhibition, % (test concentration not listed). actives 3.8% (n = 290,000). AID 485317, 2010;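 active = mean and each replicate at 75% or more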;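 also: stock transfer was 7.5 nL into about 7.5 µL; 0% = neutral wells and 100% = wells with inactivated enzyme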
Target sequence (P55789 whole entry, looked up): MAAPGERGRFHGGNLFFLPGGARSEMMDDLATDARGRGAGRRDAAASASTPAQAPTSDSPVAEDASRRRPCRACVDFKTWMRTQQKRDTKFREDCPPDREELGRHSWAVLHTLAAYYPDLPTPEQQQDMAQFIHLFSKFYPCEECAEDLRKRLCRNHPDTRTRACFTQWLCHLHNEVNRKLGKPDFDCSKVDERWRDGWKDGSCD
LANA-H2B inh – blockers of LANA interaction with H2A/H2B – biochemical, FP readout, HTS, primary screen; cell-free LANA-H2A/H2B peptide, fluorescence polarization; actives 0.6% (n = 320,000); inhibition, % (no concentration beside the values); Protein LANA1 (Human herpesvirus 8 type P (isolate GK18)), Q9QR71; in the data active = inhibition mostly above about 10%, no sharp cut-off; inactive = mostly below about 6.7%;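 also: stock transfer was 7.5 nL into about 10 µL; 0% = median of vehicle wells and 100% = median of positive control wells; one replicate is shown; the record names a cut of 25% in any replicate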
rRNA inh HTS OD600 – also measured in rRNA inh HTS; calls as there; OD600 change, %; measured here: OD600 growth;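 optical density of the mix in the first replicate; 0 = DMSO median and -100 = no signal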
rRNA inh HTS RFP – further read-out of rRNA inh HTS, marked with its call; RFP signal change, %; measured here: RFP humanized mutant strains;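 first replicate; 0 = DMSO median and -100 = no signal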
* hit, by the source's call; · = not tested or not shown.

Below each compound – Bfl-1 A1 inh	Calb FLC	rRNA inh HTS	rRNA inh HTS OD600	rRNA inh HTS RFP	B2AR ag	T cruzi inh	Beta cell apopt	ALR inh	LANA-H2B inh
O=C(N/N=C/c1ccc(N2CCOCC2)c([N+](=O)[O-])c1)c1ccc(F)cc1
 : 0.6	14	·	·	·	7	-10	-8	-7	-2.6
Cc1nc(=O)c(-c2ccccc2)c(C)n1-c1ccccc1
 : 0.6	39	8	3	1.0	4	7	·	-8	-3.7
CC1CCN(S(=O)(=O)CCNC(=O)c2ccc3c(c2)OCO3)CC1
 : 0.0	-4	5	11	1.7	-1	-4	-2	-1	1.6
C=CCC(CC=C)(C(=O)O)c1ccccc1
 : 0.2	3	·	·	·	0	-6	-1	1	-2.8
O=C(CSCc1ccc(Cl)cc1)Nc1ccc(-c2nnc(-c3ccccc3)o2)cc1
 : -2.7	-7	·	·	·	16	-6	1	-1	0.0
Cc1ccc(CNC(=O)CCc2nnc(Cc3ccc(-c4ccccc4)cc3)o2)o1
 : 0.0	8	5	-4	4.2	-16	-7	·	97*	-10
COc1ccc(-c2nc(SCC(=O)Nc3nccs3)c(-c3ccc(Cl)cc3)[nH]2)cc1
 : -0.3	2	-5	-19	5.0	2	21	4	37	1.4
CCOC(=O)C1=C(N)Oc2ccc3ccccc3c2C1c1ccc(O)c(OC)c1 (stereo unspecified)
 : -0.6	13	-26	-62	24	8	17	-4	-4	2.6
Cc1ccc(-n2c(SCC(=O)OC(C)C)nnc2-c2ccco2)cc1
 : -0.8	0	·	·	·	23	9	-5	2	3.4
CCOC(=O)C1CCN(C(=O)COc2ccc(S(=O)(=O)NC(C)C)cc2)CC1
 : 0.6	-6	·	·	·	0	-8	-3	-8	-2.1
COc1c(Br)cc(Br)cc1/C=N/NC(=O)c1ccncc1
 : 0.7	-4	5	-2	-1.9	-5	-11	6	-3	-2.7
COC(=O)c1c(-c2ccccc2)csc1NC(=O)c1c(-c2ccccc2)noc1C
 : 1.3	0	11	7	18	-5	18	5	·	·
COc1ccc(N2C(=O)C3CCCN3C2c2ccccc2Cl)cc1 (stereo unspecified)
 : 0.2	-1	9	6	3.4	6	0	-6	-25	0.0
Cn1c(=O)cc(N2CCOCC2)[nH]c1=O
 : 0.0	1	14	10	0.6	-1	10	-4	32	0.3
O=C(COC(=O)c1ccc(F)cc1F)NC(=O)Nc1ccc2c(c1)OCCO2
 : -1.8	·	3	11	0.8	8	·	-2	-4	0.0
CCSc1ccc2nnc(-c3ccc(F)cc3)n2n1
 : 0.0	-32	-35	-55	-9.1	-14	2	-3	-3	-0.1
CCOC(=O)COc1cccc2c(=O)n(CC(=O)N3CCCCC3)ccc12
 : -0.3	-4	5	-1	-1.4	19	-6	-3	·	-3.5
CC(C)(C)OC(=O)C[C@@H]1C/C=C\C[C@@H](CC(=O)NCCO)C(=O)N[C@H](Cc2c[nH]c3ccccc23)COC1=O
 : -0.9	·	5	17	-5.3	0	·	-2	-10	5.5
COc1cc(OC)cc(C(=O)N[C@H](C(=O)Nc2nc3c(s2)CCCC3)C(C)C)c1
 : -0.4	12	-6	0	-1.8	-6	10	-5	2	-2.3
COc1ccc(OCC(=O)OCC(=O)N2C(C)CCCC2C)cc1 (stereo unspecified)
 : 0.5	·	17	14	-0.6	0	·	-4	-14	0.4
Cc1ccc(C2CC(c3cccs3)=NN2C(=O)c2ccco2)o1 (stereo unspecified)
 : 0.4	8	-43	-62	-6.1	-22	16	1	26	20*
Nc1c(NCc2ccccc2)c2ccccc2oc1=O
 : -0.3	-20	·	·	·	-15	8	0	4	-0.5
Cc1cccc(NS(=O)(=O)c2ccc(C)c(C(=O)NCc3cccnc3)c2)c1
 : 2.2	·	-10	-9	-1.3	-2	·	-15	-6	-4.6
O=C(Nc1ccc(F)c(Cl)c1)c1nsc(Cl)c1Cl
 : -7.0	8	·	·	·	-18	7	-1	12	-3.3
O=C(COc1ccc(F)cc1)Nc1nnc(C2CCCCC2)s1
 : -1.1	·	5	12	-1.4	5	-5	-4	-3	6.6
O=C1CCCC/C=C\C[C@H](CC(=O)N(CCO)Cc2ccccc2)C(=O)NC[C@H](c2ccccc2)O1
 : -0.2	·	-4	2	1.9	-1	·	2	5	-4.5
Cc1cccc(OCCCC(=O)NNC(=O)CCN2CCN(c3ccccc3)CC2)c1
 : -0.5	-1	7	17	2.0	-1	-6	-5	29	-7.3
Cc1ccc(S(=O)(=O)N(CC(=O)NCc2ccncc2)C2CCCCC2)cc1
 : 0.9	14	·	·	·	-7	12	3	-12	5.8
O=C(NCCc1cccs1)C(c1ccccc1)c1ccccc1
 : -0.1	-15	-18	-27	-5.9	4	-11	-3	2	-2.5
CCOC(=O)C1CCN(Cc2cccc(Oc3ccc(Cl)cc3)c2)CC1
 : -0.6	-26	-31	-46	-4.6	9	1	-2	-3	-3.3
Cc1ccnc(SCC(N)=O)n1
 : 1.5	0	9	-3	-0.4	0	-9	-5	-3	-4.9
Cc1ccc(CNC(=O)CCSCc2ccccc2F)cc1
 : -0.6	-1	-2	-10	0.0	-15	6	-9	-6	5.8
O=C(NCc1ccncc1)C(=O)N/N=C/c1ccccc1OCc1ccccc1
 : -0.5	-12	3	50	1.4	-16	-10	5	1	2.4
O=C(Nc1ccccc1Cl)C1CCN(Cc2cnn(-c3ccccc3)c2-n2cccc2)CC1
 : 0.2	-12	·	·	·	-10	8	3	4	0.3
CCOC(=O)N1CCC(NC(=O)CC2C(=O)NCCN2Cc2cccc(F)c2F)CC1 (stereo unspecified)
 : -0.2	-2	12	4	2.1	-4	-6	-1	-4	-3.1
COc1ccccc1CN1CC(C(=O)NCc2cc(C)on2)CCC1=O (stereo unspecified)
 : -0.1	-12	1	1	0.6	-1	-12	·	-8	-5.1
Cc1[nH]n(C(N)=S)c(=O)c1N=Nc1ccc(Cl)cc1Cl
 : -4.0	-1	0	-2	-1.6	7	-13	22	96*	2.7
Cc1cccc(CSc2ccc(-c3cccs3)nn2)c1
 : -0.3	-27	·	·	·	-21	13	-4	1	1.2
OC(c1ccccc1)(c1ccccc1)C1CCN(C(=S)Nc2ccc(F)cc2)CC1
 : 0.3	·	0	-6	-6.9	9	·	-6	3	3.6
Cc1ccc2nc(Nc3ncc4c(n3)CC(C)(C)CC4=O)nc(C)c2c1
 : -0.1	18	18	16	12	0	10	2	·	·
CCOC(=O)c1cc2c(=O)[nH]ccc2nc1C
 : -0.1	-2	·	·	·	1	2	-3	-16	1.0
COCCOC(=O)C1=C(C)NC2=C(C(=O)CC(C)(C)C2)C1c1ccc2c(c1)OCO2 (stereo unspecified)
 : 0.9	10	3	-7	-2.5	3	-4	-2	0	2.2
Cc1ccc(-c2cc(C(=O)NCc3cnn(C)c3C)c3cc(Br)ccc3n2)cc1
 : 1.4	0	·	·	·	9	16	22	-2	0.9
CC1(C)OC(=O)C(=C2CCCN2)C(=O)O1
 : -0.3	-4	·	·	·	3	-24	-5	0	3.0
CCCCCNC(=O)Cc1ccc(OC)cc1
 : -0.1	5	·	·	·	5	4	2	-14	-1.0
CCCCC/C=N/NC(=O)c1[nH]c2ccc([N+](=O)[O-])cc2c1C
 : 2.1	6	-48	-68	-7.0	-4	23	·	-2	1.7
COC(=O)c1cc(=O)n(Cc2ccccc2)c(=NCc2ccccc2)s1
 : -0.2	-5	2	-5	-0.6	·	-10	-2	-14	0.6
COc1cccc(N2CC(NS(=O)(=O)c3ccc4ccccc4c3)CC2=O)c1 (stereo unspecified)
 : 0.1	7	2	-21	-1.7	-1	5	3	-3	4.5
COc1ccc(C(=O)Nc2ccc(S(=O)(=O)NC(C)=O)cc2)cc1
 : 0.0	0	·	·	·	-4	-11	-3	-7	-11
C/C(=N\Nc1ccccn1)c1ccc(Br)s1
 : -0.5	-10	-20	-43	6.9	12	-2	-2	99*	-3.3
COc1ccc(C2(C)NC(=O)N(CC(=O)c3cc(C)n(C4CC4)c3C)C2=O)cc1 (stereo unspecified)
 : 0.4	·	2	-2	5.7	0	·	-6	11	4.9

Of the compounds above, these contain an NH in an aromatic ring:
Below each compound – Bfl-1 A1 inh	Calb FLC	rRNA inh HTS	rRNA inh HTS OD600	rRNA inh HTS RFP	B2AR ag	T cruzi inh	Beta cell apopt	ALR inh	LANA-H2B inh
COc1ccc(-c2nc(SCC(=O)Nc3nccs3)c(-c3ccc(Cl)cc3)[nH]2)cc1
 : -0.3	2	-5	-19	5.0	2	21	4	37	1.4
Cn1c(=O)cc(N2CCOCC2)[nH]c1=O
 : 0.0	1	14	10	0.6	-1	10	-4	32	0.3
CC(C)(C)OC(=O)C[C@@H]1C/C=C\C[C@@H](CC(=O)NCCO)C(=O)N[C@H](Cc2c[nH]c3ccccc23)COC1=O
 : -0.9	·	5	17	-5.3	0	·	-2	-10	5.5
Cc1[nH]n(C(N)=S)c(=O)c1N=Nc1ccc(Cl)cc1Cl
 : -4.0	-1	0	-2	-1.6	7	-13	22	96*	2.7
CCOC(=O)c1cc2c(=O)[nH]ccc2nc1C
 : -0.1	-2	·	·	·	1	2	-3	-16	1.0
CCCCC/C=N/NC(=O)c1[nH]c2ccc([N+](=O)[O-])cc2c1C
 : 2.1	6	-48	-68	-7.0	-4	23	·	-2	1.7

Some of the compounds tested, so the mix of outcomes need not match the whole.
